Ba CapD inh – inhibitors of Bacillus anthracis CapD enzyme; z-score (concentration not given with the values); 140,000 tested, 0.23% active; purified CapD enzyme, fluorescence intensity read-out; hits give low values; some hits fall short of the stated cut;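 active = z-score under -4 in either of two replicates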;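 also: stock transfer was 100 nL into about 40 µL; score is relative to mean and spread of the plate; one replicate is shown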
AID504770 – E. coli YBA685 growth inhibition, screen for V. cholerae RctB inhibitors | E. coli YBA685 rctB-dependent plasmid, OD600 growth, 3 h; hits give low values | z-score (test concentration not listed) | 130,000 tested, 0.27% active | AID 504770;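 active = z-score under -2 on both plates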;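 also: wells of about 30 µL received 100 nL stock; score is relative to mean and SD of the test wells; the first replicate is given; strong numbers were not always called active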
The depositor's hits bear a star.

How did COC(=O)c1cc(COC(=O)c2ccc3ccccc3n2)oc1C do in these assays?
AID504770: -0.15

Results for Cc1ccc2nc(-c3ccc(NC(=O)C(C)C)cc3)oc2c1 ?
Ba CapD inh: 75; AID504770: 1.3

What do the screens show for `COc1ccc(C2Nc3cccc4cccc(c34)N2)cc1O`?
Ba CapD inh: 63

Results for COc1ccc(C2CCCCCN2C(=O)Nc2ccccc2)cc1 (stereo not given) ?
AID504770: 0

What do the screens show for `CCCCC(CC)C1OC(C)CC(C)(C)O1` (stereo not given)?
Ba CapD inh: -0.46; AID504770: 0.7

Results for O=C(CSc1nc2ccccc2n1Cc1ccccc1)N/N=C/c1cccnc1 ?
Ba CapD inh: -0.28; AID504770: -1

How did COc1ccc(Cl)c2c1NC(c1ccncc1)C1CC=CC21 (stereo not given) do in these assays?
AID504770: -0.3

What do the screens show for `Cn1nc(C(F)(F)F)c2cc(C(=O)Nc3ccc(F)cc3F)sc21`?
Ba CapD inh: -0.64

Results for CN(CCO)S(=O)(=O)c1ccc2c(c1)Cc1cc(S(=O)(=O)N(C)CCO)ccc1-2 ?
Ba CapD inh: 0.29; AID504770: 1.3

Results for O=C(Nc1ccc(Cl)cc1Cl)c1cc2cc([N+](=O)[O-])ccc2s1 ?
Ba CapD inh: 0.23

How did COc1ccc(S(=O)(=O)N2CCC(C(=O)NC3CC3)CC2)cc1Cl do in these assays?
AID504770: -1.2

How did CCC(=O)N1CCN(c2ccc(N)cc2)CC1 do in these assays?
AID504770: -0.05

What do the screens show for `N#Cc1ccc(-c2csc(NC(=O)/C=C/c3cccs3)n2)cc1`?
Ba CapD inh: 2.2; AID504770: -0.15

Results for COc1ccc(Br)cc1Cc1nc(C)cc(Cl)n1 ?
AID504770: -0.8

What do the screens show for `CCC(=O)Nc1nnc(SCC(=O)Nc2ccccc2)s1`?
Ba CapD inh: -0.1; AID504770: -0.7

Results for O=c1c(Cc2ccccc2)c(O)c2ccccc2n1Cc1ccccc1 ?
Ba CapD inh: 8.6

What do the screens show for `CC(C)(C)C(=O)Cn1c(C(=O)O)cc2ccccc21`?
AID504770: 1.7

What do the screens show for `O=C(CC1CCCCC1)NC1CCCC1`?
Ba CapD inh: -0.27; AID504770: -0.75

What do the screens show for `CC(C)NC(=O)N1CCc2c([nH]c3ccccc23)C1c1ccc(F)cc1` (stereo not given)?
Ba CapD inh: -2.1; AID504770: -0.4

Results for CCOC(=O)c1sc(=S)sc1SCc1cccc(C#N)c1 ?
Ba CapD inh: -0.1

What do the screens show for `O=C(O)CC(=O)Nc1ccc(OC(F)(F)F)cc1`?
Ba CapD inh: 0.085; AID504770: 0.4

How did COC(=O)COc1ncnc2sc3c(c12)CCC3 do in these assays?
AID504770: 1.6

How did CCOC(=O)c1sc2nc3n(c(=O)c2c1C)N=C(c1cc2cc(Cl)ccc2oc1=O)CS3 do in these assays?
Ba CapD inh: -0.39; AID504770: -0.85

What do the screens show for `CCOC(=O)C1=C(C)N=c2s/c(=C\c3cc(C)n(C)c3C)c(=O)n2C1c1ccc(OC)c(OC)c1` (stereo not given)?
Ba CapD inh: -0.36

What do the screens show for `COc1cc(O)c(C(=O)Cc2ccc(Cl)cc2)c(OC)c1`?
Ba CapD inh: -0.18; AID504770: -0.65

What do the screens show for `CCS(=O)(=O)c1ccc(O)c(NC(=O)CC2(CC(=O)O)CCCC2)c1`?
Ba CapD inh: -1.2; AID504770: -1.1

Results for Cc1c(CCC(=O)O)c(=O)oc2cc3occ(C(C)(C)C)c3cc12 ?
Ba CapD inh: 21; AID504770: 0

How did O=C(O)c1ccccc1CS(=O)c1ccccc1 (stereo not given) do in these assays?
Ba CapD inh: -0.32

What do the screens show for `Cc1ccc(OCC(=O)/C=C2\N(C)c3ccccc3C2(C)C)cc1`?
AID504770: -0.1

How did CCCCN(C)C(=O)Cn1ncc2c3ccccc3n(CCC)c2c1=O do in these assays?
Ba CapD inh: 61; AID504770: -1.2

Results for CC(C)COc1cccc(OCC(=O)Nc2cccc(Cl)c2)c1 ?
Ba CapD inh: -0.72; AID504770: -0.4

Results for CSc1ccccc1C(=O)NCC1COc2ccccc2O1 (stereo not given) ?
AID504770: -1.4

Results for Cc1csc(SCc2ccccc2C(=O)OCc2nc3scc(-c4ccco4)c3c(=O)[nH]2)n1 ?
AID504770: 1.1

What do the screens show for `CC1=CC(=C(C#N)C#N)C=C(C)N1CCc1ccc(S(N)(=O)=O)cc1`?
AID504770: -0.4

How did CC1CCCC(NCC(O)COCc2ccc3c(c2)OCO3)C1C (stereo not given) do in these assays?
AID504770: 0.15

What do the screens show for `O=C(O)C1CC=CCC1C(=O)NCCc1csc(-c2ccccc2)n1` (stereo not given)?
Ba CapD inh: 0.34; AID504770: -0.55

Some of these compounds in order of SMILES length, descending:
Results for Cc1csc(SCc2ccccc2C(=O)OCc2nc3scc(-c4ccco4)c3c(=O)[nH]2)n1 ?
AID504770: 1.1

What do the screens show for `CC1=CC(=C(C#N)C#N)C=C(C)N1CCc1ccc(S(N)(=O)=O)cc1`?
AID504770: -0.4

What do the screens show for `CCS(=O)(=O)c1ccc(O)c(NC(=O)CC2(CC(=O)O)CCCC2)c1`?
Ba CapD inh: -1.2; AID504770: -1.1

Results for Cc1c(CCC(=O)O)c(=O)oc2cc3occ(C(C)(C)C)c3cc12 ?
Ba CapD inh: 21; AID504770: 0

What do the screens show for `Cc1ccc(OCC(=O)/C=C2\N(C)c3ccccc3C2(C)C)cc1`?
AID504770: -0.1

What do the screens show for `COc1cc(O)c(C(=O)Cc2ccc(Cl)cc2)c(OC)c1`?
Ba CapD inh: -0.18; AID504770: -0.65

How did O=C(O)c1ccccc1CS(=O)c1ccccc1 (stereo not given) do in these assays?
Ba CapD inh: -0.32

(listing goes on)
What do the screens show for `CCOC(=O)c1c(NC(=O)CSc2nnc(CNC(=O)c3ccco3)n2CCc2ccccc2)sc2c1CCC2`?
Ba CapD inh: -0.2

What do the screens show for `CC(C)(C)NC(=O)NCCC1CCCCN1S(=O)(=O)c1ccccc1` (stereo not given)?
AID504770: -0.9

How did O=C(Nc1ncc(Cl)cn1)c1cccs1 do in these assays?
Ba CapD inh: -0.86; AID504770: 1.2

How did C[C@@H](C(=O)NCc1ccccc1Cl)N1C(=O)C2CC=CCC2C1=O (stereo not given in full) do in these assays?
AID504770: -1.1

Results for O=C(Cn1nc2sc3ccccc3n2c(=O)c1=O)c1cccs1 ?
Ba CapD inh: 6.4; AID504770: -0.15

What do the screens show for `CSc1ccc(C2C3C(=O)NC(=O)C3ON2c2ccccc2)cc1` (stereo not given)?
AID504770: -0.8

What do the screens show for `NC(=O)COC(=O)C1(c2ccc(Cl)cc2)CCCC1`?
Ba CapD inh: 0.095; AID504770: -0.35

How did Cc1cc(N2CCN(c3ccccc3)CC2)n2ncnc2n1 do in these assays?
Ba CapD inh: 0.15; AID504770: 0.15

What do the screens show for `O=C(/C=C/c1ccccc1)NC(=S)Nc1cccnc1Cl`?
Ba CapD inh: 0.52; AID504770: 0.15

Results for O=C(OCC(=O)N1CCCC1=O)c1cccc(S(=O)(=O)NCc2ccccc2)c1 ?
AID504770: 1

Results for CCOc1ccc(N2C(=O)CC(N3CCC(O)(c4ccc(Cl)cc4)CC3)C2=O)cc1 (stereo not given) ?
AID504770: -0.9

What do the screens show for `CC(C)(C)C(=O)NC(=S)Nc1cc(C(F)(F)F)cc(C(F)(F)F)c1`?
Ba CapD inh: 0.18; AID504770: -0.6

Of the compounds above, 2 have an NH in an aromatic ring.
What do the screens show for `CC(C)NC(=O)N1CCc2c([nH]c3ccccc23)C1c1ccc(F)cc1` (stereo not given)?
Ba CapD inh: -2.1; AID504770: -0.4

Results for Cc1csc(SCc2ccccc2C(=O)OCc2nc3scc(-c4ccco4)c3c(=O)[nH]2)n1 ?
AID504770: 1.1

New compounds follow
Results for CSc1cccc(N=C2NC(=O)C(CC(=O)Nc3cccc(SC)c3)S2)c1 (stereo not given) ?
Ba CapD inh: -0.27; AID504770: 1.2

Results for COc1ccc(CCN2C(=O)CCC2(C)C(=O)NCc2ccccc2)cc1OC (stereo not given) ?
Ba CapD inh: 0.11; AID504770: -0.55

Results for O=C1NC(=S)NC(=O)C1=Cc1cc(Cl)c(OCc2ccc(F)cc2)c(Cl)c1 ?
Ba CapD inh: -0.92

How did CCC(C)N(C(=O)CSc1nc(N)c2c3c(sc2n1)CCCC3)C1CCS(=O)(=O)C1 (stereo not given) do in these assays?
AID504770: -0.4

What do the screens show for `c1ccc(CC2CCN(c3ncnc4c3oc3ccccc34)CC2)cc1`?
AID504770: 0

How did CC1=NN(c2cc(Cl)cc(Cl)c2)C(=O)/C1=C/c1ccc(-c2ccc3c(c2)C(=O)OC3)o1 do in these assays?
Ba CapD inh: 0.47

What do the screens show for `CO/C(N)=N/C(=S)Nc1ccc(C(C)C)cc1`?
Ba CapD inh: -0.47; AID504770: 0.5

Results for O=S(=O)(NCc1nc2ccccc2[nH]1)c1ccccc1OC(F)(F)F ?
Ba CapD inh: -0.02

What do the screens show for `CCN(CC)Cc1ccc(C(=O)O)o1`?
AID504770: -0.35

What do the screens show for `Cc1ccc(/C(O)=C2\C(=O)C(=O)N(c3nnc(C)s3)C2c2ccc(C(C)(C)C)cc2)cc1` (stereo not given)?
Ba CapD inh: 0.025

What do the screens show for `CSc1ccc(OS(=O)(=O)c2cc(S(=O)(=O)c3ccccc3)cs2)cc1`?
Ba CapD inh: -0.33

What do the screens show for `CC(=O)[C@H]1CC[C@H]2[C@@H]3CC=C4C[C@@H](O)CC[C@]4(C)[C@H]3CC[C@]12C`?
Ba CapD inh: -0.18

Results for Cc1cccc(NC(=O)CSc2nc3ccccc3nc2Cc2cccc([N+](=O)[O-])c2)c1 ?
Ba CapD inh: 0

How did CC(C)C(=O)Nc1ccc(NC(=O)c2ccccc2)nc1 do in these assays?
AID504770: -0.4

Results for COC(=O)C1=c2s/c(=C/c3ccc(O)cc3)c(=O)n2C(N)=C(C#N)C1c1ccc(O)cc1 (stereo not given) ?
Ba CapD inh: -0.25

What do the screens show for `Nc1cc(C(=O)OCC(=O)N2CCc3ccccc32)ccc1Cl`?
Ba CapD inh: 36; AID504770: -0.75

How did CCC(CC)NC(=O)c1ccc[nH]c1=S do in these assays?
AID504770: 0.2

What do the screens show for `Clc1ccc(-c2nnc3ccc4ccccc4n23)cc1`?
Ba CapD inh: 0.45

What do the screens show for `Cc1nc(-c2ccc(C(F)(F)F)cc2)sc1C(=O)NNC(=O)OCCN1CCN(c2ncc(Cl)cc2C(F)(F)F)CC1`?
Ba CapD inh: 1.6

What do the screens show for `CC(C)n1nc(C(=O)Nc2ccc3c(c2)CCC3)c2ccccc2c1=O`?
AID504770: 0.2

What do the screens show for `O=C(Cc1ccc(Cl)cc1Cl)N1CCN(c2ccccc2O)CC1`?
Ba CapD inh: -0.79; AID504770: -1

Results for O=C(NCCc1cccs1)c1cccs1 ?
Ba CapD inh: -1.3; AID504770: 1.4

What do the screens show for `CCOc1ccc(S(=O)(=O)N2CCN(c3cccc(C)c3)C(C)C2)c2cccnc12` (stereo not given)?
Ba CapD inh: 0.59

Results for CCn1c(CCC(N)=O)n[nH]c1=S ?
AID504770: -1

How did Cc1nc2ccccc2n1CCc1ccccc1 do in these assays?
Ba CapD inh: 0.48; AID504770: -1

How did O=C(Nc1ccc(NC(=O)c2ccc([N+](=O)[O-])cc2)c(-c2nc3ccccc3s2)c1)c1ccc([N+](=O)[O-])cc1 do in these assays?
Ba CapD inh: -0.07

How did CN(C)c1cc(C(=O)N2CCc3ccccc3C2)nc(N(C)C)n1 do in these assays?
Ba CapD inh: 2.5

Results for OCCc1c(-c2ccccc2)n(Cc2ccccc2)c2ccccc12 ?
Ba CapD inh: 48; AID504770: 0.65

How did O=C1Cc2cc(S(=O)(=O)NCc3cccs3)ccc2N1 do in these assays?
Ba CapD inh: 0.99; AID504770: -0.1

How did COc1ccccc1C1CCN(Cc2cccc([N+](=O)[O-])c2)CC1 do in these assays?
Ba CapD inh: 0.1

How did C=CCSc1nnc2[nH]c(=O)cc(N)n12 do in these assays?
Ba CapD inh: 0.2; AID504770: 0.35

How did CCc1nc2ccccc2c(C(=O)OCC(=O)N2C(C)CCCC2C)c1C (stereo not given) do in these assays?
AID504770: -1.2

What do the screens show for `Cc1cccc(C(=O)Nc2cc3c4c(c2)C2CCCC2CN4CC2CCCC32)c1` (stereo not given)?
Ba CapD inh: -0.21

Results for COc1ccc(C2SCCN2S(=O)(=O)c2ccc3ccccc3c2)cc1OC (stereo not given) ?
Ba CapD inh: -0.33

Results for Cc1ccc(S(=O)(=O)CCC(=O)OCn2nnc3ccccc3c2=O)cc1 ?
AID504770: 1.6

How did COc1ccc(OC)c(/C=c2\sc3nc(-c4ccccc4)c(-c4ccccc4)n3c2=O)c1 do in these assays?
Ba CapD inh: -0.31

How did Cc1csc2c(SCC(=O)NNC(=O)OC/C=C/COCc3ccccc3)ncnc12 do in these assays?
Ba CapD inh: 0.3

What do the screens show for `COC(=O)c1ccc(O)c(CSc2ccc(Cl)cc2)c1`?
Ba CapD inh: 0.17; AID504770: -0.6

How did COC(=O)c1cc(CO/N=C(\C)c2ccc3c(c2)OCCO3)oc1C do in these assays?
AID504770: 0.5

What do the screens show for `CCOc1[nH]n(-c2ccccc2)c(=O)c1C=Nc1ccc(C(=O)OC)cc1`?
Ba CapD inh: -0.23

How did Cn1c(C(Cc2ccccc2)NC(=O)C(C)(C)C)nc2ccccc21 (stereo not given) do in these assays?
Ba CapD inh: 0.3; AID504770: -0.85

How did CCOC(=O)c1ccccc1NC(=O)c1sc2nc(C)nc(N(CC)CC)c2c1C do in these assays?
Ba CapD inh: 5.5; AID504770: 2.3

What do the screens show for `N#CCNC(=O)c1cccc(I)c1`?
AID504770: -0.25

Results for C=CCN=c1scc(-c2ccco2)n1/N=C(\C)CC ?
AID504770: 1.8

How did CCCc1ccc(C#N)c(SCC(=O)Nc2ccc(C(=O)O)cc2)n1 do in these assays?
Ba CapD inh: 0.32

Results for CCOC(=O)c1cc(NC(=O)c2ccc(C)cc2)c(=O)oc1-c1ccccc1 ?
Ba CapD inh: 0.23

Results for CCSc1sc(C(=O)OC)c(-c2cccs2)c1C#N ?
Ba CapD inh: -0.15

Screening data deposited in PubChem by ICCB-Longwood Screening Facility, Harvard Medical School.
